# ALR inh: inhibitors of human sulfhydryl oxidase ALR. P55789. purified ALR, DTT oxidation, H2O2 HRP-luminol luminescence. inhibition, % (test concentration not listed). 290,000 tested, 3.8% active. AID 485317;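 active = mean and each replicate at 75% or more; inconclusive = only one of the two met; inactive = neither met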;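 note: stock transfer was 7.5 nL into about 7.5 µL; 0% = neutral wells and 100% = wells with inactivated enzyme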
# Target sequence (P55789 whole entry, looked up): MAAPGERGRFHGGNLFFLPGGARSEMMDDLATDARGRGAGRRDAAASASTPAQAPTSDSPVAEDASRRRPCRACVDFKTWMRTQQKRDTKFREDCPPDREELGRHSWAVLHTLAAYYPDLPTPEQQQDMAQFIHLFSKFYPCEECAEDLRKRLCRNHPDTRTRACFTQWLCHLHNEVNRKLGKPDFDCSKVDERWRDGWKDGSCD
# Vif A3G: HIV-1 Vif–A3G interaction blockers – biochemical, TR-FRET, GST-Vif 1-94, biotin-A3G peptide, dose response retest, primary screen (AID 1117319); 260,000 tested, 0.57% active; inhibition, %; hits with a dose series show IC50 in µM; TR-FRET GST-Vif / biotin-A3G peptide binding; higher % means a stronger effect; test concentration not given here; strong numbers were not always called active;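 active = above the screen mean plus three standard deviations and confirmed in dose response; inconclusive = results disagree or hit not tested in dose response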;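 note: Vif residues 1-94 fused to GST binding biotinylated APOBEC3G peptide 110-148; 0% = full assay without inhibitor and 100% = GST in place of GST-Vif; retest series ran down from 100 µM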
# HNF4A DNA FP: change in binding of human HNF4 alpha to DNA. HNF4a-FITC DNA binding, fluorescence polarization, 1 h. P41235. 360,000 tested, 0.3% active. activity change, % at 10 µM; in the data active = activity change above about 30%, passing the limit was not always enough;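 note: controls were the assay level and a saturating level of protein; the project sought stronger binding though the title names inhibitors; some compounds called inactive have numbers as strong as hits; positive values seem to mean higher polarization but the record does not say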
# Target sequence (P41235 whole entry, looked up): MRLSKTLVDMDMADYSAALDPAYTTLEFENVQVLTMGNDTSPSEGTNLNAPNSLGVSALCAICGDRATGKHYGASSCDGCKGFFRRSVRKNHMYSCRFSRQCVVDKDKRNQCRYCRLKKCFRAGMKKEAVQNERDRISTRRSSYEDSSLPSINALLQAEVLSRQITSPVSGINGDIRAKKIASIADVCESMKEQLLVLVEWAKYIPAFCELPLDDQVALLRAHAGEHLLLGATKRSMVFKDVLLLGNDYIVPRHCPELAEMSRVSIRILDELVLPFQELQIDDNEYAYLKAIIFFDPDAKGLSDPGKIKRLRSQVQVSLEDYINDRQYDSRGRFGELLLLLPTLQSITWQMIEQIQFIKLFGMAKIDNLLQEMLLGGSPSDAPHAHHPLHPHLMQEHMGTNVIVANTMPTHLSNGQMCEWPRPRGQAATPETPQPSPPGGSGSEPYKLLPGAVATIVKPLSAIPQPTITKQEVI
# Calb FLC: affects C. albicans growth with fluconazole | C. albicans CaCi-2 (fluconazole-resistant clinical isolate) + fluconazole, Alamar Blue growth, 48 h | growth inhibition, % (no concentration beside the values) | 300,000 tested, 0.57% active | AID 1979;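 active = most replicates above 75%; inconclusive = exactly half above 75%; inactive = most below 75%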;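 note: all wells also contain fluconazole at 8 µg/ml as a sub-toxic cotreatment; 0% = median of DMSO wells and 100% = median of geldanamycin control wells; wells of about 8 µL received 7.5 nL stock; the first replicate is given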
# B2AR ag: agonists of human beta-2 adrenergic receptor inducing internalization. 340,000 tested, 0.43% active. P07550. Am2.2-beta2AR cells, FAP receptor internalization, flow cytometry; reference of the scale not given here. response, % (concentration not given with the values);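 active = response above a set limit, near 3 SD of response in nonfluorescent compounds, cut at about 42% in these data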;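 note: stock transfer was 100 nL into about 11 µL; a reference agonist was the positive control; negative values mostly stem from fluorescent compounds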
# Target sequence (P07550 whole entry, looked up): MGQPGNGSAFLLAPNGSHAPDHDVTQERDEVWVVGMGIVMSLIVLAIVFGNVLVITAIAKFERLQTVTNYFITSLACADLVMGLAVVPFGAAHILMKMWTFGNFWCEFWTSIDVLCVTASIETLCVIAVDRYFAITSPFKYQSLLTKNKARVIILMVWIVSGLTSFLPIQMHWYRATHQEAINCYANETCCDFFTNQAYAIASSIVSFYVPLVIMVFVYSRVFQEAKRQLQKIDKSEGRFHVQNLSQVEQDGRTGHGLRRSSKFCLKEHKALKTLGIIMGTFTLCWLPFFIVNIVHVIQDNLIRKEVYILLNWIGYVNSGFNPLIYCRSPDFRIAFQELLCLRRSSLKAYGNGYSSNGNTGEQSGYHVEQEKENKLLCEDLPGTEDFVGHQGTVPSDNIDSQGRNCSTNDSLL
# LANA-H2B inh: blocks KSHV LANA binding to histone H2A/H2B; inhibition, % (concentration not given with the values); 320,000 tested, 0.6% active; cell-free LANA-H2A/H2B peptide, fluorescence polarization; Q9QR71; AID 2629; in the data active = inhibition mostly above about 10%, no sharp cut-off; inactive = mostly below about 6.7%;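 note: stock transfer was 7.5 nL into about 10 µL; 0% = median of vehicle wells and 100% = median of positive control wells; one replicate is shown; the record names a cut of 25% in any replicate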
# RanGTP-Impb inh: inhibitors of RanGTP-importin-beta interaction, primary screen, biochemical, FRET, CFP-Ran, YFP-importin-beta, homogeneous; inhibition, % (test concentration not listed); cell-free CFP-Ran/YFP-importin-beta FRET ratio; 300,000 tested, 1.1% active;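 active = most replicates above 15%; inconclusive = exactly half above 15%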;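 note: 0% = DMSO wells and 100% = Ran loaded with GDP instead of GTP; wells of about 40 µL received 100 nL stock; the first replicate is given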
# * hit, by the source's call; ? = inconclusive; . = no result given. Compounds were not picked by outcome; overall some 6.3% were active at least once.
1) COc1ccccc1-n1c(SCC(=O)NC2CCS(=O)(=O)C2)nc2cc([N+](=O)[O-])ccc21 (centres undefined)
2) COc1ccc(S(=O)(=O)N2CCN(CC(=O)N3CCc4ccccc4C3)CC2)cc1OC
3) CC(Sc1nnc(-c2ccc(Cl)cc2Cl)n1Cc1ccccc1)C(=O)Nc1nccs1 (centres undefined)
4) CCN(Cc1nc2ccccc2c(=O)[nH]1)Cc1nc2ccsc2c(=O)[nH]1
5) COc1ccc(C2CC(c3ccc(C)cc3)Nc3ncnn32)cc1 (centres undefined)
6) Cc1ccc2oc(=O)c3cnn(CC(=O)N(CCC(C)C)Cc4ccco4)c3c2c1
7) O=C(Nc1nnc(SCCC2OCCO2)s1)C1CC(=O)N(c2ccc(F)cc2)C1 (centres undefined)
8) CCN(CC)CCNC(=S)Nc1ccc2nc(N3CCN(CC)CC3)cc(C)c2c1
assay / entry	1	2	3	4	5	6	7	8
ALR inh	.	.	-7.4	-5.1	.	6.6	23.7	-33.0
Vif A3G	.	-7.2%	-0.1%	-1.7%	22.5%	2.2%	-2.5%	7.6%
HNF4A DNA FP	3.5	1.3	-1.6	-1.1	-2.4	0.0	4.0	6.5
Calb FLC	-3.4	.	1.1	8.8	16.4	0.9	-3.2	-0.4
B2AR ag	-7.2	-3.4	-10.4	-10.4	-7.2	-2.4	-8.1	17.3
LANA-H2B inh	-0.7	4.6	1.6	-3.6	1.9	-7.5	9.8	0.2
RanGTP-Impb inh	0.3	.	-1.3	1.4	-2.8	1.2	-2.6	-0.9

# Some of the entries so far, with tabs.
cpd	canonical_smiles	ALR inh	Vif A3G	HNF4A DNA FP	Calb FLC	B2AR ag	LANA-H2B inh	RanGTP-Impb inh
1	COc1ccccc1-n1c(SCC(=O)NC2CCS(=O)(=O)C2)nc2cc([N+](=O)[O-])ccc21 (centres undefined)	.	.	3.5	-3.4	-7.2	-0.7	0.3
8	CCN(CC)CCNC(=S)Nc1ccc2nc(N3CCN(CC)CC3)cc(C)c2c1	-33.0	7.6%	6.5	-0.4	17.3	0.2	-0.9
3	CC(Sc1nnc(-c2ccc(Cl)cc2Cl)n1Cc1ccccc1)C(=O)Nc1nccs1 (centres undefined)	-7.4	-0.1%	-1.6	1.1	-10.4	1.6	-1.3
7	O=C(Nc1nnc(SCCC2OCCO2)s1)C1CC(=O)N(c2ccc(F)cc2)C1 (centres undefined)	23.7	-2.5%	4.0	-3.2	-8.1	9.8	-2.6

# Going on with the list.
9) CCOc1ccc(C(CC(=O)O)NC(=O)C23CC4CC(CC(C4)C2)C3)cc1 (centres undefined)
10) CCC1CO/C(=C(\C(=C(Cl)Cl)N2CCOCC2)[N+](=O)[O-])N1 (centres undefined)
11) Cc1cccc(OCC(=O)Nc2nc3ccc([N+](=O)[O-])cc3s2)c1
12) Cc1c(C(C)C)c(=O)n(-c2ccc(S(=O)(=O)NC(C)C)cc2)n1C
13) COc1ccc(OC)c(N(CC(=O)NCCc2ccc(OC)c(OC)c2)S(=O)(=O)c2ccccc2)c1
14) Cc1cccc(-n2ncc3c(NC4CCCCC4)ncnc32)c1
15) Nn1c(SCc2ccc(Br)cc2)nnc1-c1cccnc1
16) COc1ccc(-c2n[nH]c(=S)o2)c(OC)c1
assay / entry	9	10	11	12	13	14	15	16
ALR inh	0.6	81.0*	.	-9.3	-2.3	-16.1	-13.5	89.6*
Vif A3G	2.9%	-1.1%	16.7%	.	.	18.5%	11.3%	-2.0%
HNF4A DNA FP	0.9	-0.2	-0.2	0.3	1.6	2.2	0.2	1.0
Calb FLC	-1.0	-1.1	?	-10.2	-5.2	-5.8	5.8	-2.6
B2AR ag	0.4	-7.7	16.1	-1.1	-6.8	5.4	3.9	-0.9
LANA-H2B inh	2.6	10.0	4.9	-2.5	2.9	10.8	-1.0	1.7
RanGTP-Impb inh	-0.1	1.1	3.4	4.0	-1.4	-1.8	4.7	-0.3

17) O=C(CSc1nnc(-c2ccncc2)o1)Nc1cccc(Cl)c1
18) C/C=C/C=N/NC(=O)CN(c1ccc(Br)cc1)S(=O)(=O)c1ccccc1
19) Nc1ccccc1C#Cc1ccc([N+](=O)[O-])cc1
20) CCOC(=O)N(O)c1ccc(C=Cc2ccccc2)cc1
21) OC1CCCN(Cc2ccc3c(c2)Cc2ccccc2-3)C1 (centres undefined)
22) O=C1c2cccnc2C(=O)N1Cc1ccc(S(=O)(=O)N2CCOc3ccccc32)cc1
23) CC(=O)Nc1ccc(N2CCCCC2)c(C(=O)Nc2cccc(C)c2)c1
24) CCCN(CCC)S(=O)(=O)c1ccc(NC(=O)Cc2cccs2)cc1
assay / entry	17	18	19	20	21	22	23	24
ALR inh	6.8	2.7	-41.8	.	-11.8	-7.6	97.4*	-20.1
Vif A3G	-5.8%	11.0%	.	29.7%	-3.1%	8.6%	-1.2%	11.4%
HNF4A DNA FP	-2.2	0.8	1.1	-6.0	3.6	0.7	-3.3	-2.6
Calb FLC	.	-6.4	-16.4	.	-4.6	-9.3	93.7*	-7.6
B2AR ag	1.7	-0.3	10.0	4.2	-4.7	-3.5	-11.0	-0.8
LANA-H2B inh	-1.3	0.2	-5.9	.	-5.6	4.8	1.9	2.3
RanGTP-Impb inh	.	-1.4	-3.3	.	2.0	?	-1.5	1.7

25) O=S1(=O)NC(=NC2CCCCCC2)c2ccccc21
26) O=C(CN1CCOCC1)N1N=C(c2cccs2)CC1c1cccs1 (centres undefined)
27) O=C(C1CCCN(S(=O)(=O)c2cnc[nH]2)C1)N1CCN(Cc2ccccc2)CC1 (centres undefined)
28) COc1ccc(CN(C)C(=O)c2ccc(NS(=O)(=O)c3ccccc3)cc2)c(OC)c1
29) Cc1sc2ncnc(OCC(=O)NCc3cccs3)c2c1C
30) CCOC(=O)c1cc(-c2ccc(F)cc2)n(CC(=O)N2CCCC2)c1C
31) CC1CCCN(C(=O)c2ccc3ncsc3c2)C1 (centres undefined)
32) COc1ccccc1NC(=O)N1CCN(C(=O)Nc2ccccc2OC)CC1
assay / entry	25	26	27	28	29	30	31	32
ALR inh	89.2*	10.6	?	.	-1.0	.	.	.
Vif A3G	10.8%	-2.5%	-0.1%	2.1%	11.3%	0.3%	4.9%	-1.5%
HNF4A DNA FP	0.9	-4.6	0.4	0.1	-1.1	-1.1	0.6	1.1
Calb FLC	-4.2	25.3	-2.4	-3.8	7.0	1.3	.	2.5
B2AR ag	-9.5	1.3	-4.6	4.7	-13.6	2.6	-0.5	2.4
LANA-H2B inh	0.3	4.0	-0.4	.	-3.0	.	.	-8.9
RanGTP-Impb inh	-1.7	-5.7	-1.7	-7.4	1.0	-3.1	.	1.8

33) O=C(NCc1cccnc1)c1cc2nc(-c3ccc4c(c3)OCO4)cc(C(F)(F)F)n2n1
34) CCCn1c(SCC(=O)NCc2ccc3c(c2)OCO3)n[nH]c1=O
35) COc1ccccc1-n1nc(C)cc1N
36) CC1Cc2ccccc2N1C(=O)CSc1nc2cc3c(cc2cc1C#N)OCO3 (centres undefined)
37) O=C(CCCO)NNc1c2ccccc2nc2ccccc12
38) FC(F)(F)c1ccncc1-c1nnc(C2CCCCC2)o1
39) COc1ccc(/C=C/C(=O)NC2CCCCC2C)cc1 (centres undefined)
40) Cc1ccc(/C=C/C(=O)O)cc1S(=O)(=O)Nc1ccc2c(c1)OCO2
assay / entry	33	34	35	36	37	38	39	40
ALR inh	0.6	.	-4.1	-14.3	98.8*	-1.0	-2.1	8.6
Vif A3G	-7.6%	-3.8%	10.8%	-59.7%	-5.6%	-8.4%	.	-2.5%
HNF4A DNA FP	-0.9	-1.2	2.1	9.4	0.8	1.1	2.2	-5.4
Calb FLC	22.8	.	3.0	.	0.1	-30.1	1.7	-1.7
B2AR ag	1.1	-0.1	-2.2	-6.3	-7.9	1.8	-1.2	-0.9
LANA-H2B inh	-1.0	-2.6	3.6	1.3	-3.1	2.2	-1.6	3.7
RanGTP-Impb inh	1.2	.	-0.9	.	24.8*	-0.1	2.5	6.5

41) CN(C)S(=O)(=O)c1ccc(N2CCOCC2)c(C(=O)O)c1
42) Cc1oc2c(C)c3oc(=O)c(CCC(=O)N[C@@H](CC(C)C)C(=O)O)c(C)c3cc2c1C
43) COc1ccccc1C(C)NCC(=O)NC(=O)NCc1ccco1 (centres undefined)
44) CCOc1ccc(NC(=O)CN(C)C(=O)c2sccc2-c2ccccc2)cc1OCC
45) CS(=O)(=O)N1CCN(C(=O)c2ccc(F)cc2)CC1
46) COC(=O)c1ccc(NC(=O)CSCc2ccccc2C)cc1
47) C[C@H](NC(=O)c1nc[nH]c1C(=O)NCC(=O)OC(C)(C)C)C(=O)OC(C)(C)C
48) COc1ccc2c(c1)[C@H]1[C@H](CO2)[C@H](c2ccccc2)[C@]2(C)C(=O)Nc3ccc(C)cc3C(=O)N12
assay / entry	41	42	43	44	45	46	47	48
ALR inh	-3.5	12.7	6.0	.	-10.2	-4.7	-15.0	2.0
Vif A3G	0.1%	.	4.2%	-0.7%	-3.5%	-7.6%	-7.7%	.
HNF4A DNA FP	1.5	3.3	-2.5	0.6	4.5	0.6	2.2	2.0
Calb FLC	21.2	6.0	-8.7	.	13.9	33.8	-6.0	.
B2AR ag	3.5	4.8	4.1	4.3	3.5	14.0	4.9	4.4
LANA-H2B inh	-2.5	0.9	-10.0	.	1.3	7.5	-3.2	-4.2
RanGTP-Impb inh	-0.6	-2.0	0.1	.	0.0	1.6	-1.0	.

49) Cn1cnnc1SCc1ccc(-c2ccc(Br)cc2)o1
50) O=C(NCCC1CCCCN1S(=O)(=O)c1cccs1)C(=O)Nc1cccc(F)c1 (centres undefined)
51) CCNc1nc(NCC)n2c(SCC(=O)NC34CC5CC(CC(C5)C3)C4)nnc2n1
52) CCCS(=O)(=O)N1CCC(C(=O)N2CCOCC2)CC1
53) COc1ccc(/C(O)=C2/C(=O)C(=O)N(CCCN(C)C)C2c2ccccc2)cc1OC (centres undefined)
54) CCC(=O)Nc1ccc(NC(=O)CSc2nnc(C(C)C)n2C)cc1
55) COc1cccc(CN2CCCC(C(=O)c3ccc4c(c3)OCO4)C2)c1OC (centres undefined)
56) O=C(COC(=O)CN1CCSC1=O)Nc1ccc(F)cc1Cl
assay / entry	49	50	51	52	53	54	55	56
ALR inh	43.2	-19.6	-13.6	-2.0	.	-8.7	-10.7	-42.7
Vif A3G	21.6%	.	-2.9%	16.3%	10.1%	25.6%	-9.3%	.
HNF4A DNA FP	9.4	-3.4	2.5	1.2	-2.0	-1.1	3.5	1.7
Calb FLC	1.9	9.7	-4.5	2.4	35.6	-9.0	-18.7	.
B2AR ag	3.5	-7.2	0.5	-0.1	-1.9	-5.8	-1.9	31.6
LANA-H2B inh	-17.0	-1.2	-0.3	-5.8	-3.4	-1.9	-4.3	-2.1
RanGTP-Impb inh	4.7	2.9	?	-1.6	3.1	-0.6	2.6	.

57) Cc1cccc(NC(=O)c2cc(-c3cc(C)ccc3O)n[nH]2)c1
58) C=CCn1c(-c2c[nH]c3ccccc23)n[nH]c1=S
59) Cc1c(C(=O)NCc2ccccc2)c(-c2ccccc2)nn1-c1ccccc1
60) CC(=O)c1c(C)nn(CC(O)COc2ccc3c(c2)CCC3)c1C (centres undefined)
61) O=C(COc1ccc(Cl)cc1Br)NC(=O)NCc1ccccc1
assay / entry	57	58	59	60	61
ALR inh	.	27.6	-3.2	-13.1	0.9
Vif A3G	.	2.3%	-2.9%	1.0%	.
HNF4A DNA FP	1.5	2.1	1.3	-2.5	-0.3
Calb FLC	20.0	6.2	?	4.0	2.9
B2AR ag	-1.8	6.5	-13.4	17.8	-5.6
LANA-H2B inh	-6.0	1.4	-1.4	0.4	-1.7
RanGTP-Impb inh	3.8	1.4	-3.4	0.8	2.2

# Screens (PubChem)
